# Assay outcomes deposited in PubChem BioAssay by National Center for Advancing Translational Sciences (NCATS).
# hNpr1 antagonist = human Npr1 receptor antagonism. HEK293 hNpr1 GloSensor cGMP, ANP-stimulated luminescence. Potency, µM (titrated, usually from 46.3 µM), without a hit: top-dose activity change, negative = inhibition, most hits filed as inhibitors. 76,000 compounds, 1.6% hits. AID 1347048; active = well fitted inhibition curve with a large enough effect; inconclusive = small, poorly fitted or top-dose-only effect; inactive = no such curve, though single readings can be large or run the other way;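 also: nearly all actives have a fitted effect of over 60% in size; nearly all hits also lower the signal before the agonist is added; a reference antagonist and vehicle were the controls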
# Target sequence (P16066 whole entry, looked up): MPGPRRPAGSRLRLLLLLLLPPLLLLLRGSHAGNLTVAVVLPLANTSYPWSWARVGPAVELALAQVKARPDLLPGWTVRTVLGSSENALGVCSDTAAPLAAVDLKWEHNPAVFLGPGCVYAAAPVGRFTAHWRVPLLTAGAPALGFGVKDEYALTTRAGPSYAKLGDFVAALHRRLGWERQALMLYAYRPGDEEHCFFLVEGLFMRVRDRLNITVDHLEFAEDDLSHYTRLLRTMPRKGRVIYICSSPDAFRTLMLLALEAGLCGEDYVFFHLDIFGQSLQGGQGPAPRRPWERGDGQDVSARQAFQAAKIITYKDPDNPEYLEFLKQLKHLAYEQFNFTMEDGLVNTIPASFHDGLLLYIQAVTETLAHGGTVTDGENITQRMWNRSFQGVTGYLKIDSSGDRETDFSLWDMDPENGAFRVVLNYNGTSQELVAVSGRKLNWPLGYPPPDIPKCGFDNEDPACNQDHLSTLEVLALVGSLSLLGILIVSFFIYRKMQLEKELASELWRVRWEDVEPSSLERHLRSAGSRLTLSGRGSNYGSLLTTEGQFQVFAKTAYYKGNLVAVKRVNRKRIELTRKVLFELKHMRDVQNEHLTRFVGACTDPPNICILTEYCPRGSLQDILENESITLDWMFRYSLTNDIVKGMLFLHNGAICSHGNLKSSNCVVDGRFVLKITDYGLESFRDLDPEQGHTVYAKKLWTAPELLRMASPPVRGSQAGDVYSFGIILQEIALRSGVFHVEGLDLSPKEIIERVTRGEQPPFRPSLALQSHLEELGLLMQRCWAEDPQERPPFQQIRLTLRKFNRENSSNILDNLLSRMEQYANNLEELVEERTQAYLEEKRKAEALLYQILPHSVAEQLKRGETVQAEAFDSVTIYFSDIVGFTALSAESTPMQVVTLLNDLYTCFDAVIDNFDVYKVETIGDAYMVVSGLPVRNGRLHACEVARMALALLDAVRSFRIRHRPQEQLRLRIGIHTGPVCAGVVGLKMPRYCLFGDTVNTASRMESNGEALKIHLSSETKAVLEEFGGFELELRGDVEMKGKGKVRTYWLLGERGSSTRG
#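 HEK293 cells stably expressing human Npr1 and cGMP GloSensor pGS-40F, loaded 2 h with 2% GloSensor reagent, given compound 30 min at room temperature. Luminescence read before and 20 min after 0.1 nM hNppA.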
# The depositor's hits bear a star; ? = inconclusive; [ ] = remark or other dose. % is scaled to controls: 0 for no effect and ±100 for the full control effect; potency is read from the fitted curve at half-maximal effect.
SMILES,hNpr1 antagonist
CCCNC(=O)C1CCc2ncc(-c3ccc(OC)cc3)n2C1 (centres undefined),-1%
Cc1ccccc1CCC1CCCN(C(=O)c2ccccc2-c2nn[nH]n2)C1 (centres undefined),8%
O=C(CN1Cc2nc(-c3cc4ccccc4o3)ccc2OCC1=O)N1CCCC1,1%[70.6 µM]
C=CCN1C(=O)[C@@H]2C[C@@H](NC(=O)c3ccncc3)CCN2C1=O,2%[70.6 µM]
COc1cccc(N2CC(C(=O)N3CCC(C(=O)NCC4CC4)C3)NC2=O)c1 (centres undefined),0%
NC(=O)c1ccc(N2CCN(Cc3c(Cl)cncc3Cl)CC2)nc1,1%
O=C1CC(c2ccccc2)N(C(=O)CNS(=O)(=O)c2cccnc2)CCCCCCN1 (centres undefined),1%
Cc1nc(N2CCC(NC(=O)Cc3ccccc3Cl)CC2)cc(C(F)(F)F)n1,10µM*
Cc1noc(C)c1-c1cccc(CCOc2cnc3c(ccn3CC(=O)O)c2)c1,-2%[70.6 µM]
O=C(NC1CCCN(c2cc(-c3ccc(Cl)cc3)[nH]n2)C1)c1ccccc1F (centres undefined),-14%
Cc1nc2c(c(-c3ccc(O)cc3)n1)CN(C(=O)c1ccccc1F)CC2,1%
O=C(NC[C@H]1O[C@@H](CO)[C@@H](O)[C@H]1N1CCN(c2ccc(F)cc2)CC1)c1ccccc1,6%
COCCNC(=O)c1ccc(CC2CCNCC2)cc1,-3%
COc1ccc(CNC(=O)C2CN(S(=O)(=O)C3CC3)CC23CCCCC3)c(OC)c1 (centres undefined),0%
O=C1Nc2ccccc2OCC12CCN(Cc1cccnc1)CC2,9%[70.6 µM]
CC(C)c1cc(C(=O)NCc2nnnn2-c2ccccc2)nc2ncnn12,1%
CCn1nccc1C(=O)N[C@@H]1CN(Cc2ccccc2)C[C@H]1CN(C)C,-3%
Cc1nc(CN(C)C(=O)c2cc(Cn3c(C)nc4ccccc43)on2)cs1,10µM*
CCC(=O)N1CCC2(CC1)CC(N1CCOCC1)CCO2 (centres undefined),-2%
COc1ccccc1-c1[nH]nc2ncc(-c3cccnc3OC)nc12,-1%[70.6 µM]
CC1=C[C@@H](CNCc2ccccc2F)[C@H](C(C)C)C[C@H]1Cc1nc2c(C)cccc2[nH]1,?
CC(=O)NCC(=O)N1CCCn2cc(-c3ccc4c(c3)OCO4)nc21,-9%
CN(Cc1cccn1C)CC1CCCCC1,32%[activator][70.6 µM]
C[C@@H]1C(=O)O[C@H]2[C@H]1CC[C@@]1(C)Cc3sc(Nc4ccc(F)cc4)nc3[C@@H](C)[C@H]21,-10%[70.6 µM]
CCc1ccccc1NC(=O)Cn1c(N(C)Cc2ccccc2)nc(C)cc1=O,-9%
CC1CCN(Cc2nnnn2CC(=O)N(Cc2ccncc2)CC2CCCO2)CC1 (centres undefined),14%
COCCNC(=O)C[C@@H]1C[C@H]2O[C@H](CNC(=O)Nc3cccc(Cl)c3)[C@@H](O)[C@H]2O1,9%[70.6 µM]
O=C(O)C1CC2(CCN(C(=O)CN3CCCC3=O)CC2)CN1 (centres undefined),-3%
O=C(CCNc1c(-c2ccccc2)nc2cnccn12)N1CCCC1,-1%
CCOc1ccc(CC(=O)N2CCC(Cc3nc(-c4ccc(OC)cc4)no3)CC2)cc1,4.5µM*
CS(=O)(=O)N(Cc1cccnc1)C1CN(C(=O)CCc2c[nH]c3ccccc23)C1,1%
CC(C)NC(=O)C1COC2(CCN(C(=O)c3ccccc3Cl)CC2)N1C(=O)c1ccccc1 (centres undefined),-1%
COc1cccc(NC(=O)Cn2nc3n(c2=O)CCCCC3)c1,3%
CC1(CNC(=O)C2COc3ccccc3O2)CCOCC1 (centres undefined),5%
N#Cc1ccc(CN2CC(CNC(=O)c3ccccc3)C3(C2)CN(c2ccccc2)C3)cc1 (centres undefined),-17%[70.6 µM]
O=C(O)CCn1ncc2cc(OCC3CCN(c4ncccn4)CC3)ccc21,3%[70.6 µM]
O=C1NC2(CCCN(Cc3ccccc3)C2)Oc2ccccc21 (centres undefined),-3%[70.6 µM]
Cc1ccc(-n2nc(C)c([C@H]3C=C[C@@H](OC(=O)Nc4cccc(C(F)(F)F)c4)C3)c2C)cc1Cl,?
CCCc1cc(NCc2cn3c(n2)SCC3)n2nccc2n1,7%
CC(C)c1nc2c(c(-c3ccc(O)cc3)n1)CCN(Cc1cccc3ccccc13)CC2,?
Cc1ccsc1C(=O)N1CCC2(CC1)NC(=O)N(c1cccc(Cl)c1)N2,-22%
O=C(Cn1cnnn1)N1C[C@@H](COCC2CC2)[C@H](c2ccncc2)C1,-13%
Cn1cccc1CN1C[C@@H](COc2ccncc2)[C@H](c2ccccn2)C1,3%
CCC1c2nccn2CCCN1C(=O)CCn1cccn1 (centres undefined),-2%
Cc1cc(=O)n2[nH]c(CC(=O)N[C@H]3[C@H]4CCO[C@H]4[C@@H]3N(C)C)nc2n1,4%
O=C1NCCCCCN(C(=O)Cc2ccccc2)[C@H]2CCC[C@@H]12,1%
Cc1ccsc1-c1nc(-c2nnn3c2COC(c2ccccc2Cl)C3)no1 (centres undefined),0%
O=C1CSC2(CCN(S(=O)(=O)c3ccc(F)cc3)CC2)N1Cc1ccco1,0%
COc1ccc(NC(=O)c2cc3c(=O)[nH]c(C)cn3n2)cc1OC,0%
Cc1nc(CCNS(=O)(=O)c2cn(C)cn2)no1,-10%
C[C@H]1[C@@H]2[C@@H](O)C([C@H](C)C(=O)NC3CCCCC3)CC[C@@]2(C)CC[C@@H]1NC(=O)C1CCCCC1 (some centres undefined),-1%
Cc1cccc(C(C(=O)N2CCN(S(=O)(=O)N(C)C)CC2)N(C)C)c1 (centres undefined),-6%
Cc1noc(C)c1Cc1ccc(C(=O)N2CC(N(Cc3cccnc3)CC(C)C)C2)o1,-3%
Cc1ccc(CN2CC[C@@](C)(O)[C@H](N3CCCC3)C2)o1,8%
COC(=O)c1cccc(C(=O)N2CCC(Cc3nc(-c4cnccn4)no3)CC2)c1,3%
NC(=O)COc1ccc(Cl)cc1CN1CCCC(CO)(CC2CC2)C1 (centres undefined),-12%
CNC(=O)[C@@H]1C[C@@H](O)CN1C1CCN(C(=O)C2CCCC2)CC1,4%
COCCn1c(CO)nnc1C1CC(NC(=O)c2cn3ccsc3n2)C1 (centres undefined),14%
CC(=O)N1CCC(N2C[C@@H]3C[C@H](C2)c2ccc(-c4ccccc4CN(C)C)c(=O)n2C3)CC1,-2%
COc1ccccc1C(=O)N[C@@H]1CN(Cc2ccccn2)C[C@H]1CN(C)C,5%
# Remaining list, next part
SMILES,hNpr1 antagonist
COc1ccc2c(c1)CN(C(C)C)CC[C@H]1COC(=O)N21,-1%[70.6 µM]
O=C(NCC12CCC=C1N(CC1CC1)C(=O)CC2)c1nccc2ccccc12 (centres undefined),-15%
N#Cc1ccc(CN2C[C@@H](CO)[C@H](NC(=O)c3ccccc3)C2)cc1,-10%
Cc1ccc(CN2CCCC3(COc4ccccc4C(=O)N3)C2)cc1 (centres undefined),-2%[70.6 µM]
O=C(Cn1nc2c(cc1=O)CCCC2)NC1CCS(=O)(=O)C1 (centres undefined),7%
CN1CCC([C@@H]2CN(S(=O)(=O)c3ccc(F)c(F)c3)C[C@H]2C(N)=O)CC1,9%
CCn1nccc1C(=O)N1CCCn2ccnc2C1c1cnn(C)c1 (centres undefined),0%
O=C(c1ccc(C(F)(F)F)cc1)N1CCC(N2CCCC2=O)CC1,18%
CCc1ccc(C(=O)N2CCC(N3C(=O)CCC3C(N)=O)CC2)cc1 (centres undefined),1%
COC(=O)[C@@H]1Cc2nc[nH]c2CN1Cc1ccc(C)cc1,-1%[70.6 µM]
Cc1cc(C(=O)NCCc2noc(-c3ccncc3)n2)nn1C,0%
CC1=C[C@@H](CNC(=O)CCC(=O)O)[C@H](C(C)C)C[C@H]1CC(=O)NCc1ccccn1,0%[70.6 µM]
COc1cccc(C(=O)NC2CCCN(c3cc(-c4ccc(F)cc4)[nH]n3)C2)c1OC (centres undefined),-19%
O=C(NCc1ccccc1)c1cnc2n1CCN(Cc1ccccc1)CC2,-1%[70.6 µM]
COc1ccc(S(=O)(=O)N2CCc3nn(C)c(=O)n3CC2)cc1Cl,4%
COc1ccc(-c2nc(C)nc3c2CCC3)c2ccc(C)nc12,8%
Oc1ccccc1CN1CCNc2cc(Nc3ccccc3)ncc2C1,-25%[70.6 µM]
Cc1nc(C2CC(O)C2)cc(N2CCC(c3nc(C(C)C)no3)CC2)n1 (centres undefined),?
COc1cc(-c2nc(C3CC(=O)N(c4ccc(Cl)cc4)C3)no2)cc(OC)c1OC (centres undefined),-1%
CC(=O)Nc1ccc(CNC[C@H]2Cn3c(-c4ccc(F)cc4)cnc3CO2)cc1,-29%[70.6 µM]
O=C(Nc1ccccc1)N1CCCC(c2nn(-c3ccc(F)cc3)c(=O)[nH]2)C1 (centres undefined),31%[activator]
COc1ccc(C(=O)N2C[C@@H](Oc3cccnc3)C[C@H]2C(=O)NC2CC2)cc1F,7%
CCOc1ccc(S(=O)(=O)N2CCCN(C)c3ccccc32)cc1,-18%
CC1(c2ccccc2)N(Cc2cccnc2)C(=O)OC12CCN(Cc1ccc(F)cc1)CC2 (centres undefined),2%
Cc1ccc(-c2noc(C(C)Oc3ccccc3)n2)nn1 (centres undefined),2%
CCN1C(=O)CCN(Cc2cn(C)c3ccc(OC)cc23)CC12CCOCC2,2%
Cc1nn2c(c1-c1ccccc1C(C)C)N(C(=O)C1CCOCC1)CCC2,4%[70.6 µM]
O=C(Cn1cccc1-c1nc(-c2ccc(F)cc2)no1)NCc1ccccc1Cl,6%
O=C(Cc1cccc(F)c1)Nc1ccc(-c2nnc3n2CCCC3)cc1,7%
COc1ccc(CN2C(=O)CO[C@H](c3ccc(NC(=O)COc4ccccc4)cc3)[C@H]2CO)cc1,-16%
CCN(CC)C(=O)N1CCCN(S(=O)(=O)c2ccccc2)CCC(=O)NCC1,-3%
CCNC(=O)[C@@H]1C[C@H](NC(=O)c2ccccc2)CN1Cc1scnc1C,3%
O=C(Nc1ccccc1F)N1CC(Oc2ccc(-c3nc(-c4ccccc4)no3)cc2)C1,-18%
CN(Cc1cccnc1)Cc1nc(C2(O)CCN(Cc3ccc(F)cc3)CC2)cs1,?
CSCCCN1CCC2(CC1)CCN(Cc1ccsc1)CC2CO (centres undefined),-9%
COc1ccccc1NC(=O)Nc1cccc(-c2nnc3n2CCCC3)c1,0%
CC(C)c1nncn1C1CCN(S(=O)(=O)c2ccccc2Cl)CC1,-2%
COc1ccc(C(=O)N2CCC(OCC3CC3)C2)cn1 (centres undefined),3%
COc1ccc(C(=O)N2CCC3(CC2)N=C(c2ccccc2)NO3)cc1OC,1%
COc1ccc(CNC(=O)CC2CCCCN(C)C2=O)c(OC)c1 (centres undefined),-5%

# A section from further up, for reference:
SMILES,hNpr1 antagonist
Cc1nn2c(c1-c1ccccc1C(C)C)N(C(=O)C1CCOCC1)CCC2,4%[70.6 µM]
O=C(Cn1cccc1-c1nc(-c2ccc(F)cc2)no1)NCc1ccccc1Cl,6%
O=C(Cc1cccc(F)c1)Nc1ccc(-c2nnc3n2CCCC3)cc1,7%
COc1ccc(CN2C(=O)CO[C@H](c3ccc(NC(=O)COc4ccccc4)cc3)[C@H]2CO)cc1,-16%
CCN(CC)C(=O)N1CCCN(S(=O)(=O)c2ccccc2)CCC(=O)NCC1,-3%
CCNC(=O)[C@@H]1C[C@H](NC(=O)c2ccccc2)CN1Cc1scnc1C,3%
O=C(Nc1ccccc1F)N1CC(Oc2ccc(-c3nc(-c4ccccc4)no3)cc2)C1,-18%
CN(Cc1cccnc1)Cc1nc(C2(O)CCN(Cc3ccc(F)cc3)CC2)cs1,?
CSCCCN1CCC2(CC1)CCN(Cc1ccsc1)CC2CO (centres undefined),-9%
COc1ccccc1NC(=O)Nc1cccc(-c2nnc3n2CCCC3)c1,0%
CC(C)c1nncn1C1CCN(S(=O)(=O)c2ccccc2Cl)CC1,-2%
COc1ccc(C(=O)N2CCC(OCC3CC3)C2)cn1 (centres undefined),3%
COc1ccc(C(=O)N2CCC3(CC2)N=C(c2ccccc2)NO3)cc1OC,1%
COc1ccc(CNC(=O)CC2CCCCN(C)C2=O)c(OC)c1 (centres undefined),-5%

# New compounds follow:
SMILES,hNpr1 antagonist
COCCOC1CN(C2CCN(C(=O)c3ccc(OC)nc3)CC2)C12CCCCC2 (centres undefined),0%
CCCc1cc(C(=O)N2CCC(=O)N(Cc3ccccc3)C(CC)C2)ccn1 (centres undefined),11µM*
OCc1cc(CC2(NC3CCC(CO)CC3)COC2)no1 (centres undefined),0%[70.6 µM]
CC1CCN(CC2CCCCCN2C(=O)NCc2ccc(F)cc2)CC1 (centres undefined),-15%
Cc1cnn(CC(=O)N(C)C2CCc3nn(CC4CC4)c(=O)n3CC2)c1 (centres undefined),0%
O=C(Cc1ccc(F)cc1)N1CCC(c2nn(Cc3ccccc3)c(=O)[nH]2)CC1,0%
CC[C@@]1(C(=O)O)C[C@H](C(=O)N2CCN(C)CC2)[C@H](c2ccc(OC)cc2)N1C,2%
Cc1cc2nc3n(c(=O)c2n1CC(=O)Nc1ccc(Br)cc1F)CCC3,2%
Cc1noc(C)c1-c1cc2cc(C(C)C)oc2c(-c2cccnc2)n1,-3%[70.6 µM]
CSc1ncccc1C(=O)NC1CCCN(CCCc2ccccc2)C1 (centres undefined),13%
CC(C)CN1CCN(C(=O)c2ccc(CCC(C)(C)O)cc2)C(C)C1=O (centres undefined),1%
Cc1noc(C)c1S(=O)(=O)N1CCCCCCn2c(nnc2-c2ccc(F)cc2)CC1,-6%
O=C(NC1CC(c2nnc(CO)n2C2CC2)C1)c1csc(-c2ccccc2)n1 (centres undefined),5%
CC1(CNC(=O)c2ccc3ccccc3n2)CCOCC1,0%
CN(CC1CCOC1)S(=O)(=O)c1ccccc1Br (centres undefined),4%

# An excerpt; count on the stated rates, not on these rows.
